Bioassay records (PubChem)
NS1 function inh – blocks influenza NS1 protein function. 270,000 tested, 0.4% active. AID 2326. S. cerevisiae slowed by influenza A NS1, growth recovery by OD600. Potency, µM (top dose mostly 46.1 µM), for inactives: top-dose activity, positive = more growth; active means well fitted rising curve with a large enough effect; inconclusive means small, poorly fitted or top-dose-only effect; inactive means no such curve, though single readings can be large or run the other way; note: nearly all actives have a fitted effect of over 50% in size
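Recovery from NS1-induced slow growth read by OD600 in budding yeast switched to galactose assay medium (pH 6.0, -URA) at 1:100 dilution. Compound 23 nl per well; the matching strain lacking NS1 serves as control.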
LASV entry inh – Lassa virus entry inhibition | Lassa virus pseudotype entry inhibition, cell reporter; control for the full effect not named in the record | Potency, µM (highest dose often 37.9 µM), inactives show top-dose activity change, negative = inhibition, usual class: inhibitors | 300,000 tested, 1.2% active | AID 540256; active means well fitted inhibition curve with a large enough effect; inconclusive means small, poorly fitted or top-dose-only effect, or effect the other way; inactive means flat fitted curve, though single readings scatter; tested in HEK293 cells; note: % is set by controls: 0 for no effect and ±100 for the full control effect; nearly all actives have a fitted effect of over 50% in size; luciferase read-out
Cruzain inh noDet – cruzain (T. cruzi) inhibition without detergent | purified cruzain, Z-FR-AMC fluorescence, no detergent | Potency, µM, inactives show max response, negative = inhibition, hits mostly inhibitors | 200,000 tested, 2.3% active;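 note: plate controls were enzyme without inhibitor for no effect and buffer without enzyme for full effect; nearly all actives have a fitted effect of over 40% in size; top concentration of the series not given in the record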
Target sequence (P25779 123-467 limits assumed): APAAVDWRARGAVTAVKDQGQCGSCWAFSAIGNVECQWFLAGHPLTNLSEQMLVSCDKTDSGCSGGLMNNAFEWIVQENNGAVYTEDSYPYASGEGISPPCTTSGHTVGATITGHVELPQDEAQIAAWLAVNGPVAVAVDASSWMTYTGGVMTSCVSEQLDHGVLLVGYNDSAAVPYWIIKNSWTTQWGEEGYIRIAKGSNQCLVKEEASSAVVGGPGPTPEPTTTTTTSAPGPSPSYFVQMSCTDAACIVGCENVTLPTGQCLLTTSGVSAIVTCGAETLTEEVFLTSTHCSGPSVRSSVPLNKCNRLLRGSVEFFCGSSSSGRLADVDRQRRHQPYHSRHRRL
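Detergent-free condition (0.00005% Triton X-100) in acetate buffer pH 5.5 with DTT. 1.5 nM enzyme and compound were pre-mixed 15 min, then 2 uM Z-FR-AMC substrate added; reaction progress from fluorescence change between first and third reads (60 s).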
RE007 growth inh – less growth of the S. pombe RE007 Vpr strain | Potency, µM (top dose mostly 92.2 µM), for inactives: top-dose activity change, negative = less growth | S. pombe RE007 Vpr strain, BacTiter-Glo ATP luminescence, 24 h; control for the full effect not named in the record | 360,000 tested, 0.21% active; active = well fitted falling curve with a large enough effect; inconclusive = small, poorly fitted or top-dose-only effect; inactive = no such curve, though single readings can be large or run the other way;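 note: % is set by controls: 0 for no effect and ±100 for the full control effect; nearly all actives have a fitted effect of over 50% in size; the assay follows cell death caused by Vpr and the record does not say whether a fall means rescue or toxicity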
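Fission yeast RE007 carrying one integrated HIV-1 vpr copy, seeded at OD 0.01 in PMG+AL medium with 23 nL pinned compound. Grown 24 h at 30 degrees; viability read by BacTiter-Glo luminescence after 5 min.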
StopGo reporter – FMDV 2A StopGo reporter, luciferase signal; human cells with a luciferase reporter of 2A StopGo recoding; control for the full effect not named in the record; Potency, µM (titrated, usually from 57.9 µM), without a hit: top-dose signal change, negative = less light; 410,000 tested, 1.2% active; AID 1159524; active = well fitted falling curve with a large enough effect; inconclusive = small, poorly fitted or top-dose-only effect; inactive = no such curve, though single readings can be large or run the other way; tested in HEK293T cells; note: % is set by controls: 0 for no effect and ±100 for the full control effect; nearly all actives have a fitted effect of over 45% in size; luciferase light after 4 h
Marburg entry inh – blocks Marburg virus binding to or entry into cells. Marburg virus pseudotyped entry inhibition, cell reporter; control for the full effect not named in the record; about a third of the inactives were read at about 46 µM. Potency, µM (highest dose often 37.8 µM), for inactives: at the top dose activity change, negative = inhibition, actives largely listed as inhibitors. 300,000 tested, 1.8% active. AID 540276; active = well fitted inhibition curve with a large enough effect; inconclusive = small, poorly fitted or top-dose-only effect, or effect the other way; inactive = flat fitted curve, though single readings scatter; tested in HEK293 cells; about a fifth of its hits are not listed in these tables; note: % is set by controls: 0 for no effect and ±100 for the full control effect; luciferase read-out
Cruzain Triton – cruzain (T. cruzi) inhibition with detergent | purified cruzain, Z-FR-AMC fluorescence, 0.01% Triton | AID 1478 | 200,000 tested, 0.43% active | Potency, µM, for the others: max response, negative = inhibition, usual class: inhibitors;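 note: plate controls were neutral wells for no effect and buffer without enzyme for full effect; nearly all actives have a fitted effect of over 40% in size; top concentration of the series not given in the record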
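Steps: dispense cruzain (1.5 nM final) in acetate buffer pH 5.5 with DTT and 0.01% Triton X-100; pin-transfer compounds; incubate 15 min RT; add Z-FR-AMC (2 uM final); read fluorescence every 30 s, using the 60 s intensity change.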
SARS PLpro yeast – SARS-CoV PLP inhibition in yeast | 330,000 tested, 0.19% active | S. cerevisiae expressing SARS-CoV PLpro, growth rescue; control for the full effect not named in the record | Potency, µM (highest dose often 32.9 µM), inactives show top-dose activity, positive = growth rescue; active means well fitted rising curve with a large enough effect; inconclusive means small, poorly fitted or top-dose-only effect; inactive means no such curve, though single readings can be large or run the other way; note: 0% is about no effect; nearly all actives have a fitted effect of over 55% in size; growth read by luminescence after 48 h
Numbers without * were called inactive; ? = inconclusive; . = no result given; [ ] = remark or other dose. Unless noted, calls come from the whole dose curve; as a rule, active = well fitted curve in the direction sought with a large enough effect; inconclusive = small, poorly fitted or top-dose-only effect, or another doubt; inactive = no such curve, though single readings can be large; an effect the other way counts as inactive or inconclusive. Potency is the fitted concentration of half-maximal effect.

canonical_smiles	NS1 function inh	LASV entry inh	Cruzain inh noDet	RE007 growth inh	StopGo reporter	Marburg entry inh	Cruzain Triton	SARS PLpro yeast
CC(=O)c1cnc2cc(-c3ccccc3)nn2c1C	?	15%	?	-7%	.	29%	-7.2%	-6%
CCOc1ccc(/C=C/c2nc(C#N)c(NCCCOC)o2)cc1	0%	?	.	-4%	-14%	?	.	-6%
CC(=O)Nc1ccc(S(=O)(=O)NNC(=O)CCC(=O)Nc2cc(C)ccc2C)cc1	6%	-1%	2%	20%	-15%	?	-1.9%	-11%
O=C(OCCOCCN=C1NS(=O)(=O)c2ccccc21)C1CC(=O)N(c2ccccc2)C1 (stereo not given)	-4%	-4%	8%	-11%	7%	3%	3.7%	13%
COc1ccc(C2CC(=O)c3c([nH]c(C(=O)OCc4ccccc4)c3C)C2)cc1 (stereo not given)	.	-1%[46.1 µM]	9%	.	0%	-19%[46.1 µM]	-0.9%	.
Cn1cc([N+](=O)[O-])c(C(=O)Nc2ccc(C(=O)N3CCCCC3)cc2)n1	5%	0%	1%	1%	13%	5%	-4.2%	-2%
COc1ccc(/C=N/NC(=O)c2cc3c(OC)ccc(OC)c3[nH]2)cc1O	10%	?	.	-6%	-1%	?	.	2%
CCOc1cc(C2NC(=O)NC(O)(C(F)(F)F)C2C(=O)c2ccccc2)ccc1OC (stereo not given)	-7%	-5%	11%	12%	19%	9%	3.1%	0%
Clc1ccc(CSc2snnc2-c2ccccc2)cc1	-10%	-36%	-1%	-2%	10%	?	-0.7%	-5%
C=CCc1ccc(OCC(O)CN2CCCCC2C)c(OC)c1 (stereo not given)	2%	4%	-3%	2%	-3%	?	-2.2%	-5%
CN(C)/C=C\C(=C/C(=O)C(F)(F)F)Nc1ccccc1Oc1ccccc1	12%	?	.	12%	-4%	?	.	-1%
O=C(c1ccccc1)c1ncc[nH]1	7%	16%[46.1 µM]	.	-5%	18%	2%[46.1 µM]	.	-3%
CCn1cc(C(=O)NCCCN(C)C)c(=O)c2cc(F)c(N3CCN(C)CC3)cc21	5%	-15%	-4%	-4%	6%	?	-3.2%	5%
CCOC(=O)C1=C(c2ccccc2)ON(C)C1c1ccccc1 (stereo not given)	-17%	-8%	-7%	-5%	-28%	-13%	-4.3%	9%
COc1ccc(N2C(=O)/C(=C/c3ccc([N+](=O)[O-])cc3)N=C2C)cc1	.	3%	.	17%	-24%	1%[46.1 µM]	.	1%
CS(=O)(=O)Nc1ccc(-c2cn3cccnc3n2)cc1	6%	.	.	22%	27%	.	.	4%
CCC(C)(C(=O)NC1CCCCC1)N(C)C(=O)c1ccccn1 (stereo not given)	3%	2%	-4%	-4%	-15%	-4%	5.0%	3%
CC(C)CNS(=O)(=O)c1ccc(CCC(=O)N2CCOCC2)cc1	5%	-2%	2%	-5%	19%	0%	-7.4%	2%
Cn1ncc(C#N)c1NC(=O)c1nn2cccnc2c1Cl	15%	14%	0%	4%	19%	14%	1.8%	-3%
Cc1cc(C)c(S(=O)(=O)N2CCN(C(=O)N3CCCCC3)CC2)c(C)c1	-9%	.	.	3%	-4%	.	.	-9%
COc1ccc(C2/C(=C(\O)c3ccc4c(c3)OCCO4)C(=O)C(=O)N2Cc2cccnc2)cc1OC (stereo not given)	-1%	.	.	21%	3%	.	.	-6%
FC(F)(F)c1ccc(NCCc2ccccc2)nc1	-9%	-13%[46.1 µM]	.	5%	1%	?	.	-3%
C=CCn1c(COc2ccccc2F)nnc1SCCN1C(=O)c2ccccc2C1=O	-8%	5%	5%	20%	?	?	-1.2%	5%
CCc1nn(Cc2cccc(F)c2)c(=O)c2cc3cc(C)ccc3n12	.	11%[46.1 µM]	-9%	.	0%	-3%[46.1 µM]	-3.8%	.
CC(C)CNC(=S)N(Cc1ccco1)Cc1cc2cc3c(cc2[nH]c1=O)OCCO3	12%	?	1%	.	-24%	?	-8.4%	-15%
CC(C)(C)N(Cc1ccccc1)C(=O)COC(=O)CN1C(=O)NC2(CCCC2)C1=O	-4%	0%	.	18%	-17%	7%	.	-3%
COc1ccc(OC)c(CN2CCN(C(=O)c3cc(S(=O)(=O)Nc4ccccc4OC)ccc3C)CC2)c1	-22%	?	.	1%	-12%	?	.	0%
CC12CCC(C/C1=N/O)C2(C)C (stereo not given)	0%	.	.	0%	-13%	.	.	2%
CCOc1ccc(NC(=O)CCC(=O)n2nc(C)cc2C)cc1	-4%	.	-14%	.	.	-2%	7.0%	5%
CSc1ccc(S(=O)(=O)NCC(=O)OCC(=O)NCc2cccs2)cc1[N+](=O)[O-]	.	2%	.	2%	-2%	-12%[46.1 µM]	.	2%
O=S1(=O)N=C(N/N=C/c2ccc(Br)o2)c2ccccc21	.	-7%[46.1 µM]	.	6%	2%	-2%[46.1 µM]	.	1%
O=C(Nc1cccc(OCC(=O)N2CCOCC2)c1)c1cccc([N+](=O)[O-])c1	1%	9%	.	-2%	1%	12%	.	0%
CCOc1ccc(N2C(=O)/C(=C\c3ccc(OC)c(O)c3)S(=O)(=O)C2c2cccc([N+](=O)[O-])c2)cc1 (stereo not given)	.	7%	.	4%	0%	-24%[46.1 µM]	.	2%
Cc1ccc(C(=O)O)cc1NS(=O)(=O)c1ccc2ccccc2c1	8%	.	.	-2%	-18%	.	.	-1%
COC(=O)/C(=N\OCc1ccc(C#N)cc1)c1c(C)nn(C)c1C	9%	16%	.	-3%	8%	2%[46.1 µM]	.	1%
CS(=O)(=O)Nc1ccc(C(=O)CC(=O)Nc2ccc([N+](=O)[O-])cc2)cc1	?	-3%[46.1 µM]	.	1%	-2%	9%[46.1 µM]	.	8%
Cc1ccsc1C(=O)NNC(=O)c1csc(N2CCOCC2)n1	.	0%	.	6%	-11%	16%	.	-1%
COc1ccc(C2C(C(=O)N3CCOCC3)c3ccccc3C(=O)N2c2ccc(OC)cc2)cc1 (stereo not given)	-9%	-15%	6%	2%	-5%	-6%	3.5%	-2%
CC1Cc2cc(S(=O)(=O)NCCC(=O)N(C)Cc3ccccc3)ccc2N1C(=O)C1CC1 (stereo not given)	-17%	.	.	-11%	6%	.	.	1%
Cc1ccc2occ(CC(=O)N(Cc3ccc(Cl)cc3)Cc3ccco3)c2c1	.	-6%[46.1 µM]	?	.	-3%	-4%[46.1 µM]	-5.0%	.
Cc1ccc(NC(=O)NNC(=O)c2ccc3c(c2)NC(=O)C(C)(C)O3)cc1	0%	-24%	.	1%	-3%	-1%[46.1 µM]	.	0%
Cc1csc(CNC(=O)C2CCC(=O)N(CCc3cccc(F)c3)C2)n1 (stereo not given)	1%	-7%	.	4%	-7%	2%	.	5%
O=C(C1CCC1)N1CCc2cc(S(=O)(=O)NCCc3ccccc3)ccc21	.	-26%[46.1 µM]	-13%	.	50%[activator]	1%[46.1 µM]	-1.0%	.
CCOc1ccccc1N1CCN(CC(=O)Nc2ncc(C)s2)CC1	-5%	.	.	-11%	-16%	.	.	-11%
Cc1ccc(Cl)cc1-n1c(=O)cc(N2CCN(c3ccc(F)cc3)CC2)[nH]c1=O	.	-19%[46.1 µM]	-14%	.	-12%	.	-0.2%	.
Cc1ccc(Nc2ccc(C(N)=O)cc2[N+](=O)[O-])cc1	4%	3%	-5%	32%	-18%	-11%	1.1%	0%
O=C(CN1C(=O)c2ccccc2S1(=O)=O)NC1CCCCCC1	-1%	.	-5%	12%	53%[activator]	.	2.2%	-5%
Nc1nc(SCC(=O)NCc2ccc(F)cc2)[nH]c(=O)c1NC(=O)c1ccc(Cl)cc1	19%	0%	25µM*	-11%	-14%	-5%	1.7%	1%
CCSc1nc(N2CCOCC2)c2ccccc2n1	-69%	-4%	5%	-11%	-20%	-25%	-1.6%	-1%
O=C(Nc1ccc(N2CCOCC2)cc1)c1ccc2nc(-c3ccco3)c(-c3ccco3)nc2c1	-4%	-4%	-4%	-6%	-22%	-25%	-5.7%	-4%
CCc1cccc(OCCn2ccnc2)c1	16%	11%	11%	-5%	-1%	-1%	2.2%	-2%
CCN(CC(=O)NCC(=O)Nc1ccc(Br)cc1C)Cc1ccccc1	.	-3%	.	-4%	-8%	-5%[46.1 µM]	.	0%
COC(=O)c1ccc(NC(=O)CN(C)Cc2cccc(F)c2)cc1	.	?	.	-26%	3%	4%[46.1 µM]	.	-4%
CSc1nsc(SCC(=O)NCc2ccccc2)n1	-4%	26%	.	18%	18%	-20%	.	0%
Cc1c(OC(C)C(=O)NCc2cccnc2)ccc2c3c(c(=O)oc12)CCCC3 (stereo not given)	-48%	.	.	-13%	-24%	.	.	-5%
COC(=O)c1sc(-c2ccccc2)cc1NC(C)=O	.	1%	.	5%	-17%	?	.	-6%
CCOc1ccc(OC(=O)c2cccnc2)cc1	-6%	-15%	-3%	2%	-25%	-12%	4.0%	-14%
O=C(Cn1c(=O)oc2cccnc21)Nc1ccc(C(F)(F)F)cc1	3%	24%	.	0%	14%	-8%[46.1 µM]	.	3%
COc1ccc2c(c1)c1nnc(SCC(=O)N3C(C)CCCC3C)nc1n2C (stereo not given)	-3%	5%	-17%	14%	2%	?	18µM*	2%
CCc1ccc(C2C3=C(CCCC3=O)OC3=C2C(=O)CCC3)cc1	5%	5%	-5%	13%	-12%	2%	-6.5%	12%
CCOC(=O)C1CCCN(Cc2nc(N)nc(Nc3ccc(C)cc3)n2)C1 (stereo not given)	-5%	-24%	-1%	2%	?	-1%[46.1 µM]	-0.5%	-1%
CC(=O)NC(CC(=O)NCC(=O)Nc1ccc(F)c(F)c1)c1ccccc1 (stereo not given)	1%	8%[46.1 µM]	.	11%	11%	?	.	0%
